Screens as filed in PubChem BioAssay.
RanGTP-Imp inh: inhibitors of RanGTP-importin-beta interaction, primary screen, biochemical, FRET, CFP-Ran, YFP-importin-beta, homogeneous; hit rate 1.1% among 300,000; inhibition, % (test concentration not listed); cell-free CFP-Ran/YFP-importin-beta FRET ratio;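 active = most replicates above 15%; inconclusive = exactly half above 15%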;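 note: 0% = DMSO wells and 100% = Ran loaded with GDP instead of GTP; wells of about 40 µL received 100 nL stock; the first replicate is given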
Beta2AR agonist: activates human beta-2 adrenergic receptor causing internalization | Am2.2-beta2AR cells, FAP receptor internalization, flow cytometry; reference of the scale not given here | response, % (test concentration not listed) | hit rate 0.43% among 340,000 | AID 504454;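 active = response above a set limit, near 3 SD of response in nonfluorescent compounds, cut at about 42% in these data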;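 note: stock transfer was 100 nL into about 11 µL; a reference agonist was the positive control; negative values mostly stem from fluorescent compounds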
Target sequence (P07550 whole entry, looked up): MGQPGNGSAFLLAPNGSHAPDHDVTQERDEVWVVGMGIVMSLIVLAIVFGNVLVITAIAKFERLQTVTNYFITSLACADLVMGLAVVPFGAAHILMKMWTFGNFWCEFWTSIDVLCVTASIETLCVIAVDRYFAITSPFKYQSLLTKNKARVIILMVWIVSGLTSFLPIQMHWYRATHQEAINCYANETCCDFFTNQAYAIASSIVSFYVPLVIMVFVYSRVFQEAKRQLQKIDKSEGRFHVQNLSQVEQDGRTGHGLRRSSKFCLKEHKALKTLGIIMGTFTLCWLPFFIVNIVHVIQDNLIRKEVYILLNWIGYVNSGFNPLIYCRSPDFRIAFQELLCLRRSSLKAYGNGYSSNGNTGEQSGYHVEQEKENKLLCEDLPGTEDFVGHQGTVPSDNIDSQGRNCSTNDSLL
LANA-H2B inh: blocks KSHV LANA binding to histone H2A/H2B; AID 2629; hit rate 0.6% among 320,000; inhibition, % (test concentration not listed); cell-free LANA-H2A/H2B peptide, fluorescence polarization; in the data active = inhibition mostly above about 10%, no sharp cut-off; inactive = mostly below about 6.7%;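 note: stock transfer was 7.5 nL into about 10 µL; 0% = median of vehicle wells and 100% = median of positive control wells; one replicate is shown; the record names a cut of 25% in any replicate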
HNF4A DNA FP: change in binding of human HNF4 alpha to DNA; HNF4a-FITC DNA binding, fluorescence polarization, 1 h; hit rate 0.3% among 360,000; activity change, % at 10 µM; in the data active = activity change above about 30%, passing the limit was not always enough;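 note: controls were the assay level and a saturating level of protein; the project sought stronger binding though the title names inhibitors; some compounds called inactive have numbers as strong as hits; positive values seem to mean higher polarization but the record does not say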
Vif A3G: HIV-1 Vif–A3G interaction blockers – biochemical, TR-FRET, GST-Vif 1-94, biotin-A3G peptide, dose response retest, primary screen (AID 1117319); TR-FRET GST-Vif / biotin-A3G peptide binding; higher % means a stronger effect; test concentration not given here; strong numbers were not always called active; inhibition, %; hits with a dose series show IC50 in µM; hit rate 0.57% among 260,000;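 active = above the screen mean plus three standard deviations and confirmed in dose response; inconclusive = results disagree or hit not tested in dose response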;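 note: Vif residues 1-94 fused to GST binding biotinylated APOBEC3G peptide 110-148; 0% = full assay without inhibitor and 100% = GST in place of GST-Vif; retest series ran down from 100 µM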
ALR inh: blocks human ALR sulfhydryl oxidase activity; inhibition, % (concentration not given with the values); hit rate 3.8% among 290,000; purified ALR, DTT oxidation, H2O2 HRP-luminol luminescence; AID 485317;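 active = mean and each replicate at 75% or more; inconclusive = only one of the two met; inactive = neither met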;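 note: stock transfer was 7.5 nL into about 7.5 µL; 0% = neutral wells and 100% = wells with inactivated enzyme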
Target sequence (P55789 whole entry, looked up): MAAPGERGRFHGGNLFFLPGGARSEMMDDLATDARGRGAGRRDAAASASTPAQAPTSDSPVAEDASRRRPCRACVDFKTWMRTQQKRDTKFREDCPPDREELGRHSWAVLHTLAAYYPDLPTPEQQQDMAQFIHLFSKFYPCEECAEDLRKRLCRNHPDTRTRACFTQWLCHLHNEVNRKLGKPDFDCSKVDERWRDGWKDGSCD
Calb FLC: C. albicans growth modulation with fluconazole; growth inhibition, % (concentration not given with the values); C. albicans CaCi-2 (fluconazole-resistant clinical isolate) + fluconazole, Alamar Blue growth, 48 h; hit rate 0.57% among 300,000; AID 1979;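 active = most replicates above 75%; inconclusive = exactly half above 75%; inactive = most below 75%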;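 note: all wells also contain fluconazole at 8 µg/ml as a sub-toxic cotreatment; 0% = median of DMSO wells and 100% = median of geldanamycin control wells; wells of about 8 µL received 7.5 nL stock; the first replicate is given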
* marks the source's active call; other numbers are inactive results; ? = inconclusive; . = not tested or not shown; & = joins results of further samples. No enrichment for hits; overall some 6.3% were active at least once.

SMILES | RanGTP-Imp inh | Beta2AR agonist | LANA-H2B inh | HNF4A DNA FP | Vif A3G | ALR inh | Calb FLC
Cc1cc(C)nc(NC2=NCC(=O)N2c2ccc(Cl)cc2)n1 | . | -22 | 3.0 | 0.5 | -8% | 1 | .
Cc1cccc(CN2CCN(c3ncccn3)CC2)c1 | -2.4 | 0 | 3.4 | 4.3 | . | . | -1
CCOC(=O)CNC(=O)c1cc2c(=O)[nH]c3ccc(C)cc3c2s1 | -0.1 | 17 | -5.2 | 5.2 | -7% | -2 | -3
CCOc1ccc(N2CC(C(=O)Nc3cccnc3)CC2=O)cc1 (stereo not given) | 3.7 | -3 | 1.6 | -2.1 | -7% | -9 | 0
Cc1ccc(N2CCN(S(=O)(=O)N3CCCCC3)CC2)c(C)c1 | -1.9 | 4 | 3.3 | . | . | 14 | 33
Cc1cccc(C)c1NC(=O)/C(C#N)=C/c1ccc(-c2ccc(C(=O)O)cc2)o1 | 37* | 7 | 5.6 | -0.3 | . | 1 | -6
O=C(NCc1ccco1)C(=O)NCC1OCCN1C(=O)c1ccc(Cl)cc1 (stereo not given) | 0.8 | 1 | -2.5 | 1.3 | . | -4 | -16
S=c1[nH]nc(CCc2ccccc2)n1-c1ccccc1 | 0.2 | 0 | 5.9 | -3.7 | -8% | -3 | 10
CS(=O)(=O)N(CC(=O)Nc1c(F)cccc1F)Cc1ccccc1 | 0.5 | 4 | 1.3 | -4.8 | 6% | -7 | -3
COCCN(C(=O)COc1ccc(Cl)cc1)c1nnc(-c2cccnc2)s1 | -8.4 | -1 | 3.8 | 0.6 | . | 1 | -1
Cc1ccccc1NCC(=O)N/N=C/c1ccc([N+](=O)[O-])cc1 | -0.4 | -2 | -0.3 | -0.7 | . | . | 8
CCc1cccc(C)c1NC(=S)N(CCCN1CCN(C)CC1)Cc1cccs1 | -1.2 | -2 | -2.6 | -1.4 | -4% | . | 8
CCOC(=O)CCN(Cc1cccs1)S(=O)(=O)c1ccc(F)cc1 | -2.4 | 0 | 0.5 | -5.5 | -2% | . | -3
Cc1scc(C(=O)N/N=C/c2ccc(Cl)s2)c1C | -4.6 | 7 | 5.6 | 0.3 | 3% | -6 | -1
CCOC(=O)c1c(NC(=O)CSc2nccn2C)sc(C(=O)NC)c1C | -11 | -6 | 4.3 | 1.1 | -1% | 2 | 0
Cc1cc(NS(=O)(=O)c2ccc(NC(=O)COc3ccc(Cl)c(C)c3)cc2)no1 | -0.9 | 21 | . | -3.9 | . | . | -9
CN(CC(=O)Nc1cccc(F)c1)C(=O)CSc1ccccc1 | -0.4 | -4 | . | -0.4 | 7% | . | -5
CCc1ccc(CN2CCN(S(=O)(=O)Cc3ccccc3)CC2)cc1 | 1.1 | -3 | -0.9 | -2.4 | 18% | -15 | 4
O=C(COc1ccccc1)Nc1ccc(N2CCN(C(=O)c3cccs3)CC2)cc1 | . | -3 | 4.0 | 0.8 | . | . | -22
Cc1ccc(N=Cc2ccc[nH]2)c(O)c1 | -2.5 | 17 | -2.5 | 12 | ? | 33 | 13
O=C(NCC1CCCO1)c1cc2nc(-c3ccco3)cc(C(F)(F)Cl)n2n1 (stereo not given) | -11 | -8 | -3.3 | -1.1 | . | 1 | 9
Cc1ccccc1N1CCN(Cc2c(C#N)c3ccccc3n2C)CC1 | -3.1 | -13 | 5.4 | 2.4 | ? | -1 | 9
O=C(c1ccccc1)N1CCCCC(Cl)C1=O (stereo not given) | 3.9 | 3 | 0.1 | 1.3 | -5% | -13 | -5
CC(C)NS(=O)(=O)c1ccc(OCC(=O)Nc2ccc3c(c2)OCO3)cc1 | -3.6 | -6 | 6.6 | -0.1 | 2% | -23 | -13
O=C(NC(=S)Nc1cc(S(=O)(=O)N2CCOCC2)ccc1N1CCOCC1)c1ccco1 | -2.7 | 0 | 0.3 | 3.1 | -9% | . | 16
Next structures.
SMILES | RanGTP-Imp inh | Beta2AR agonist | LANA-H2B inh | HNF4A DNA FP | Vif A3G | ALR inh | Calb FLC
c1ccc(CSc2nnnn2-c2ccc3c(c2)OCCO3)nc1 | 0.4 | -23 | 1.9 | -1.7 | 1% | -2 | -2
CN(c1ccccc1)S(=O)(=O)c1cccc(NC(=O)CN2C(=O)NC3(CCCC3)C2=O)c1 | . | 11 | . | 1.2 | -3% | . | .
Cc1ccccc1NC(=O)C(C)OC(=O)CCC(=O)N(CC(C)C)c1c(N)n(CC(C)C)c(=O)[nH]c1=O (stereo not given) | 2.5 | -7 | 2.3 | 0.2 | 0% | -9 | -5
COc1ccc(C(=O)NC(Cn2ccnc2)C(C)(C)C)cc1OC1CCN(C(C)C)CC1 (stereo not given) | 0.3 | 5 | -0.6 | 1.4 | . | -4 | -2
O=C(NC1CCCCC1)NC1CCN(S(=O)(=O)c2ccc3c(c2)OCCO3)CC1 | -1.3 | -9 | -1.7 | 0.4 | -2% | -1 | 8
COCCNC(=O)COc1cccc2c1OC(C)(C)C2 | 0.1 | 2 | -2.0 | -1.3 | 1% | -1 | 0
COC(=O)c1ccc(OC(=O)CS(=O)c2ccccc2[N+](=O)[O-])cc1 (stereo not given) | -1.1 | 6 | 1.9 | 0.4 | 2% | -58 | -4
CC(C)c1ccccc1-n1c(-c2cccnc2)n[nH]c1=S | 4.1 | 1 | -2.5 | 4.0 | -2% | 38 | -13
COc1ccccc1CNC(=O)CN1C(=O)N(C)C2(CCCCC2)C1=O | . | 2 | -4.5 | -0.7 | 0% | . | .
Cc1ccc(F)cc1NC(=O)CCC(=O)c1cccs1 | 0.5 | 0 | 0.8 | -5.1 | -1% | -2 | -7
CC1CC(C)CN(S(=O)(=O)CCNC(=O)c2ccccc2)C1 (stereo not given) | -1.0 | -6 | -0.2 | -3.5 | . | -6 | -5
CC(c1ccco1)N(C(=O)c1cccs1)c1ccccn1 (stereo not given) | -1.3 | 4 | 2.2 | 2.9 | -2% | -4 | 6
O=C1CC(N(C(=O)c2ccco2)c2ccc(F)cc2)C(=O)N1c1ccc(F)cc1 (stereo not given) | 0.1 | -1 | 1.8 | 5.2 | -5% | -6 | 3
CN1CCN(c2ccc(NC(=S)NC(=O)c3cccc4ccccc34)cc2)CC1 | 3.7 | 7 | 5.6 | 3.0 | . | 10 | 0
CC(=O)c1cccc(NC(=O)c2csc3c2CCCCC3)c1 | 0.6 | -19 | -2.2 | -1.3 | 0% | -8 | -33
O=C(CC1C=CCC1)Nc1ccccc1 (stereo not given) | . | -4 | . | -0.1 | 26% | . | .
O=C(CN1CCSC1=O)N1CCN(S(=O)(=O)c2ccc(Cl)cc2)CC1 | . | 2 | -1.3 | 0.9 | 7% | -3 | .
N#Cc1ccccc1NC(=O)CSc1cn[nH]n1 | -1.1 | -1 | 5.7 | 4.7 | . | -20 | -1
Cc1cccc(NC(=O)COc2coc(CN3CCc4ccccc4C3)cc2=O)c1 | 10 | -1 | 1.0 | 2.1 | 5% | . | 25
C#CCN1c2ccccc2Sc2cccnc21 | -24 | 9 | -0.4 | -2.4 | . | 72 | 4
Cc1ccc(C(=O)Nc2sc(C)c(C)c2C(=O)c2ccccc2)cc1 | -4.2 | -5 | 1.2 | 0.7 | -7% | 1 | ?
COc1ccc(-c2cc3nc(C)c(CCC(=O)NCc4ccc(F)cc4)c(C)n3n2)c(OC)c1 | 2.2 | -11 | 2.2 | 0.6 | . | -2 | -31
COc1ccc(C(=O)N2CCN(CCc3ccccn3)CC2)cc1 | -1.3 | -4 | 1.5 | 0.9 | 12% | -8 | .
CC(C)(C)n1nnnc1C(c1cccnc1)N1CCN(C(=O)c2ccco2)CC1 (stereo not given) | 3.7 | -1 | -2.8 | 2.8 | ? | -2 | 3
O=S(=O)(/C=C/c1ccccc1)N1CCN(c2ccc(F)cc2)CC1 | 5.8 | -4 | -1.7 | 4.0 | 67% | 12 | -5
The list goes on:
SMILES | RanGTP-Imp inh | Beta2AR agonist | LANA-H2B inh | HNF4A DNA FP | Vif A3G | ALR inh | Calb FLC
COC(=O)c1cccc(NC(=S)N2CCN(C)CC2)c1 | -0.5 | 4 | 2.0 | 2.0 | . | 7 | -4
CCS(=O)(=O)Nc1ccc(C2=NN(C(=S)Nc3ccccc3)C(c3ccco3)C2)cc1 (stereo not given) | 7.4 | 1 | 3.9 | 1.4 | . | 14 | 41
O=C(NCC1CCCO1)c1ccc(OC2CCN(C(=O)C3CC3)CC2)cc1 (stereo not given) | 3.4 | 5 | 6.1 | -1.4 | -2% | 2 | 8
O=C(CN1CCN(c2ccc(F)cc2)CC1)Nc1ccccc1C(=O)NCCc1ccccc1 | . | 14 | . | -4.0 | -3% | . | .
Cc1cc(C)cc(-n2cnc3cc(C(=O)O)ccc32)c1 | 3.0 | 3 | -2.4 | -1.0 | -1% | 2 | 0
COc1ccc(-c2cc(=O)oc3cc(OCC(=O)N4C[C@H]5C[C@@H](C4)c4cccc(=O)n4C5)ccc23)cc1 | -3.0 | -16 | -2.4 | 0.3 | . | . | 0
CCCOc1cccc(C(=O)N/N=C/c2ccoc2)c1 | 5.2 | 27 | -1.0 | -2.0 | 16% | -1 | -4
Cc1ccc(NC(=S)N2CCN(C)CC2)c(C)c1 | -1.6 | 27 | 1.7 | 1.9 | . | . | -3
O=C(N/N=C/c1ccc(O)c(O)c1)c1cccc(S(=O)(=O)N2CCCC2)c1 | -0.5 | 0 | 1.3 | -2.1 | 23% | 99* | -5
CCCCOC(=O)c1ccc(NC(=O)c2cc(Cl)c(Cl)cc2C(=O)O)cc1 | -5.1 | 3 | 3.2 | 0.1 | -8% | 32 | 18
Cn1c(NCc2ccco2)nc2c1c(=O)n(Cc1ccc(Br)cc1)c(=O)n2C | -1.1 | -3 | 3.6 | 0.8 | -2%&1% | -3 | -1
CCN(CC)C(=O)Oc1ccc2oc(=O)cc(-c3cc4cccc(OC)c4o3)c2c1 | 2.4 | 19 | 5.0 | 3.5 | . | 0 | -7
Cc1oc2cc3oc(=O)c(CCC(=O)NCCC(=O)O)c(C)c3cc2c1C | 3.4 | 6 | 3.1 | 1.3 | 2% | 36 | 5
Nc1nc(SCc2ccccc2)n[nH]1 | ? | -4 | -1.7 | -4.9 | -1% | -2 | 5
O=C(N/N=C/c1cccc(O)c1)c1cc2c(ccc3ccccc32)o1 | . | 24 | -0.7 | 3.3 | 0% | -6 | -15
O=S(=O)(c1cccc2cccnc12)N1CCOCC1 | -4.8 | -1 | 0.9 | 2.9 | 0% | -5 | -5
